Screening results from PubChem BioAssay.
KCNQ2 enhance: potentiators of rat KCNQ2 potassium channel; Potassium voltage-gated channel subfamily KQT member 2 (Rattus norvegicus), O88943; CHO-K1 KCNQ2, FluxOR thallium flux fluorescence; active compounds read high; B-score at 10 µM; actives 0.54% (n = 310,000); AID 2239, 2010;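 active = fluorescence ratio B-score at least 3 SD of library B-scores, with initial fluorescence B-score within 3 SD, cut at about 5.3 in these data; same plate scores as AID 2156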;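 also: B-score of peak minus minimum over baseline fluorescence ratio after K+ and Tl+ stimulus; positive B-score means potentiation of KCNQ2 with more thallium influx and brighter signal; only the inactives scoring about 0 or higher are listed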
Target sequence (O88943 whole entry, looked up): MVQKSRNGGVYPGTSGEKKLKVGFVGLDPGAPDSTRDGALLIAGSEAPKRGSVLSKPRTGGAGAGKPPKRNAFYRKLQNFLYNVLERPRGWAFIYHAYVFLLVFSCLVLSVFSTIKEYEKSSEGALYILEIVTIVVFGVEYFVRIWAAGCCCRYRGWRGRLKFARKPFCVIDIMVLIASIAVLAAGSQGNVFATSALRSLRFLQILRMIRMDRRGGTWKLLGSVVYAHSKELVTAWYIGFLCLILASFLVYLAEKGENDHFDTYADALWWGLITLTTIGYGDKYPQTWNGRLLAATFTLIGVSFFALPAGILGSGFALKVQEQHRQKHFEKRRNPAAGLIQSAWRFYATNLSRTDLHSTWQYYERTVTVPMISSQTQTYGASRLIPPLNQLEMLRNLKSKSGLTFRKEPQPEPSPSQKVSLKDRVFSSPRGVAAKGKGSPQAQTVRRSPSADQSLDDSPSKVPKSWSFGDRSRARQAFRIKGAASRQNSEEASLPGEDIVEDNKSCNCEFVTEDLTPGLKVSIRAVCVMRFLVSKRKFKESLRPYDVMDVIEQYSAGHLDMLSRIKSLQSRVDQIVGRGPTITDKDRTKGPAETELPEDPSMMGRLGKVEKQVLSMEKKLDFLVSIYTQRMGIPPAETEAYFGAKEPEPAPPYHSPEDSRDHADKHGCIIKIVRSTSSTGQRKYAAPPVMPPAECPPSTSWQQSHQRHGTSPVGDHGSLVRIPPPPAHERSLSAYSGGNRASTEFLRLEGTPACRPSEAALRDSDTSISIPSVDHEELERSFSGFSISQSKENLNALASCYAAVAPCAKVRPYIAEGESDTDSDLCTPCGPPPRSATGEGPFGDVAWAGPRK
KCNQ2 enhance baseline: further read-out of KCNQ2 enhance, marked with its call; B-score; compound at 10 µM; measured here: initial fluorescence intensity artifact check;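 brightness before thallium and not channel activity; 0 = typical well and far values either way flag optical interference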
The depositor's hits bear a star.

Below each SMILES – KCNQ2 enhance | KCNQ2 enhance baseline
Cc1ccc(NS(=O)(=O)c2cc(-c3cc(C)no3)ccc2C(C)C)nc1
  0.01 | -1.1
O=C(Nc1ccc(F)cc1)c1cccc2c1C(=O)N(CC1CCCO1)C2 (stereo not given)
  0.16 | -2.6
CCCCOc1ccc(S(=O)(=O)NCc2csc(C)n2)cc1
  0.01 | -1.52
Cc1onc(-c2ccccc2Cl)c1C(=O)N1CCCC1
  1.63 | 0.23
O=C(OCCCOC(=O)c1ccccc1O)c1ccccc1O
  0.17 | -0.33
Cc1ccc(C(=O)Nc2ccc(O)c(C(=O)O)c2)o1
  1.64 | 0.69
NS(=O)(=O)c1ccc(NS(=O)(=O)c2ccc(Br)cc2)cc1
  1.13 | 1.16
CN(C)S(=O)(=O)c1cccc(NC(=O)CCSc2ccc(Cl)cc2)c1
  2.05 | 0.21
CS(=O)(=O)NC1CCN(Cc2ccccc2)CC1
  0.57 | -1.7
O=C1C(Cl)=C(N2CCOCC2)C(=O)N1c1ccccc1
  0.59 | 1.95
O=C(NCC1CCCO1)c1sc2ccccc2c1Cl (stereo not given)
  0.04 | 1.48
CC(C)CNC(=O)CC(NCC(C)C)C(=O)O (stereo not given)
  0.61 | 0.21
CCn1c(=O)n(Cc2ccco2)c(=N)c2c3c(sc21)COC(C)(C)C3
  0.6 | -0.71
O=c1c2cc3c(cc2[nH]c(=S)n1CCN1CCOCC1)OCO3
  0.64 | 0.58
COc1cccc2sc(Nc3nnc(-c4ccc(F)cc4)o3)nc12
  19.7* | 1.8*
Cc1c(NC(=O)C(c2ccccc2)c2ccccc2)cccc1C(=O)O
  0.1 | 0.59
CC(=O)Nc1ccc(OS(=O)(=O)c2ccccc2C)cc1
  0.35 | -0.31
CCNC(=S)NNC(=O)c1cc(C)on1
  1.35 | 0.95
CC(=O)c1cccc(NC(=O)COC(=O)COc2c(Cl)cc(Cl)c3ccc(C)nc23)c1
  0.85 | 0.02
Cc1ccc(-c2nc(C3CCN(S(C)(=O)=O)CC3)no2)cc1
  0.22 | 1.28
COc1cc(CCC(=O)OCC(=O)Nc2c(C)cc(C)cc2C)cc(OC)c1OC
  0.61 | 0.11
COc1cc(/C=C/C(=O)OCC(=O)NCc2ccccc2OC)ccc1O
  0.2 | 1.03
COc1ccccc1NS(=O)(=O)c1ccc(Cl)c(NC(=O)CN2C(=O)c3ccccc3C2=O)c1
  0.01 | 1.16
Cc1c(CCO)c(=O)[nH]n1C(=O)c1c(F)cccc1F
  0.32 | -2.6
Cc1cc(N2CCN(C)CC2)nc2ccc(NC(=O)CCC3CCCC3)cc12
  1.96 | -0.42
CCC(=O)Nc1nnc(SCC(=O)NCCc2ccc(OC)c(OC)c2)s1
  2.14 | -0.5
O=C(NCCCNC(=O)c1ccc(-c2cccc(Cl)c2)o1)c1cnccn1
  1.32 | -1.79
O=S(=O)(NCC1CCCO1)c1ccc(S(=O)(=O)N2CCc3ccccc3C2)cc1 (stereo not given)
  0.78 | -0.25
c1ccc(Nc2nc(-c3ccccc3)ns2)cc1
  1.44 | -0.27
CCOc1ccc(NC(=O)C2CCN(C(=O)N3CCOc4ccccc43)CC2)cc1
  1.01 | -0.25
Clc1ccc(SCc2cn3cccnc3n2)cc1
  0.06 | 1.25
CCCn1c(=O)c2ccccc2n2c(SC(C)C(N)=O)nnc12 (stereo not given)
  0.06 | -1.36
O=C(O)C1Cc2ccccc2CN1S(=O)(=O)c1ccc2ccccc2c1 (stereo not given)
  0.86 | 0.01
CCOc1ccc(NC(=O)CSc2nnc(Cc3csc(C)n3)o2)cc1
  0.55 | -1.61
Cc1cccc(C(=O)OCC(=O)NNC(=O)c2cccs2)c1O
  2.36 | 0.02
COc1ccc(C2C(C(=O)OCC(=O)N3CCCCC3)CCC(=O)N2c2ccc(OC)cc2)cc1 (stereo not given)
  0.07 | -2.05
Cc1ccc(NC(=O)n2ncc3c(C)cccc32)cc1F
  0.18 | 0.14
CCN(CC)S(=O)(=O)c1ccc(Nc2nc3ccccc3n3nnnc23)cc1
  0.4 | -1.05
Cc1cc(C)cc(OC(C)C(=O)Nc2ccccc2C(=O)NCc2cccnc2)c1 (stereo not given)
  1.13 | -0.87
CCC(C(=O)OCCOCCN(CC)CC)c1ccccc1 (stereo not given)
  0.5 | 0.72
Cc1ccc(S(=O)(=O)Nc2nsc(N)n2)cc1
  1.99 | 0.02
COc1ccc(N2CCN(S(=O)(=O)Cc3ccccc3)CC2)cc1
  0.7 | 0.17
CC(C)CNc1ncnc2c1sc1nc(N3CCOCC3)c3c(c12)CC(C)(C)OC3
  0.21 | -0.05
O=C(Nc1ccccc1)c1cc2ccc3ccccc3c2s1
  0.12 | -0.21
CC(=O)Nc1ccc2nc(-c3ccncc3)[nH]c2c1
  1.13 | -0.13
O=S(=O)(Nc1ccc(S(=O)(=O)N2CCOCC2)cc1)c1ccccc1
  0.68 | -0.17
Cc1ccc(-c2nc3ccccc3c(=O)n2-c2c(C)n(C)n(-c3ccccc3)c2=O)cc1
  0.33 | -0.89
COCC1CCN(C(=O)C2CCC(=O)N(Cc3cccc(F)c3)C2)CC1 (stereo not given)
  0.32 | 1.37
CC(=O)c1ccc(S(=O)(=O)NCc2nnnn2-c2ccccc2)cc1
  0.21 | -0.16
COc1ccccc1OCCC(=O)Nc1cccc(S(=O)(=O)N2CCCCC2)c1
  0.49 | 0.33
CCN(CC)C(=O)CSc1ncccc1-c1nc2ccccc2[nH]1
  0.05 | -4.21
Cc1ccc(N2CC(NC(=O)N3CCN(C(=O)c4ccco4)CC3)CC2=O)cc1 (stereo not given)
  0.08 | -0.52
NC(=O)C1CCN(CC(=O)Nc2ccccn2)CC1
  0.47 | -0.42
O=C1C2C3CCCC3=C3CCCC3C2C(=O)N1c1ccc(F)cc1 (stereo not given)
  1.24 | -0.58
O=C(O)C12CC3CC(C1)CC(n1ncc(N4CCN(c5ccccc5)CC4)c(Cl)c1=O)(C3)C2
  0.11 | -1.2
O=C(COC(=O)C1CCN(S(=O)(=O)c2cccs2)CC1)Nc1ccccc1
  0.17 | -0.03
C=CCN1C2CCCC1CC(NC(=O)Nc1cccc(C(C)=O)c1)C2 (stereo not given)
  0.4 | -0.47
CCOC(=O)c1c(C)nc2c3ccccc3ccn12
  0.31 | 0.01
O=C(NCCN1CCN(C(=O)c2cccs2)CC1)C(=O)Nc1ccc(Br)cc1
  0.05 | -0.31
COc1ccc(CNC(=O)C(NS(=O)(=O)c2cccc3nsnc23)C(C)C)cc1 (stereo not given)
  0.34 | 1.7

Going on with the list.
Below each SMILES – KCNQ2 enhance | KCNQ2 enhance baseline
Cc1ncc([N+](=O)[O-])n1CC(=O)Nc1cc(Cl)ccc1Cl
  1.78 | -0.01
CCN(CC)CC(=O)Nc1cc(N(C)C)nc2ccccc12
  0.6 | -1.76
Cc1cc(C)nc(SCCC(=O)Nc2cccc3ccccc23)n1
  1.52 | -0.53
Cc1cc(C)c(NC(=O)NC2CCCCC2)c(C)c1
  5.15 | 1.32
COc1ccc(N2CCN(C(C)C(=O)N3CCc4ccccc43)CC2)cc1 (stereo not given)
  0.34 | 0.83
CC(=O)N1CCN(CC(=O)NC(=O)Nc2ccc3c(c2)OCCO3)CC1
  1.72 | 1.03
COC(=O)COc1cccc(NS(=O)(=O)c2cccc([N+](=O)[O-])c2)c1
  0.39 | 1.8
Cc1cc(=O)[nH]c(N/N=C/c2c[nH]c3ccccc23)n1
  0.47 | 0.14
CCCc1c(O)nc(SCC(=O)NCCc2ccc(OC)c(OC)c2)[nH]c1=O
  0.06 | 0.01
CSCCC(NC(=O)c1ccccc1Cl)C(=O)NNC(=O)c1csc(N2CCOCC2)n1 (stereo not given)
  0.01 | 0.24
CC(=O)Nc1nnc(SCC(=O)Nc2ccc(N3CCOCC3)c(Cl)c2)s1
  1.2 | -2.1
CC(C)Oc1ccc(CNC(=O)Oc2ccccc2)cc1
  0.82 | 1.32
COc1ccc2cc(S(=O)(=O)NCCCN3CCOCC3)ccc2c1
  0.92 | 0.69
CCCCc1sc(-c2c(C#N)c(N)nc3c2CCCCC3)cc1[N+](=O)[O-]
  3.84 | -1.21
CCCCc1nc(C(N)=O)c2[nH]c(=O)n(-c3ccc(OC)c(OC)c3)c2n1
  0.4 | 1.95
CCN=c1scc(-c2ccc(F)cc2)n1/N=C/c1ccccn1
  0.94 | 0.03
CCNCCNC(=O)c1c(O)c2ccccc2n(CC)c1=O
  0.63 | -0.04
O=S(=O)(c1ccc(OCC(O)CN2CCN(c3ccccc3O)CC2)cc1)N1CCOCC1 (stereo not given)
  0.01 | 2.07
C=CCn1c(N)cc(=O)nc1SCC(=O)Nc1cccc2ccccc12
  1.17 | -0.52
CN1CCN(C(=O)C2=C[C@@H](C3CC3)C[C@@H](OCc3ccc(CO)cc3)O2)CC1
  1.05 | 0.24

Next part; the last 4 above are carried over.
Below each SMILES – KCNQ2 enhance | KCNQ2 enhance baseline
CCNCCNC(=O)c1c(O)c2ccccc2n(CC)c1=O
  0.63 | -0.04
O=S(=O)(c1ccc(OCC(O)CN2CCN(c3ccccc3O)CC2)cc1)N1CCOCC1 (stereo not given)
  0.01 | 2.07
C=CCn1c(N)cc(=O)nc1SCC(=O)Nc1cccc2ccccc12
  1.17 | -0.52
CN1CCN(C(=O)C2=C[C@@H](C3CC3)C[C@@H](OCc3ccc(CO)cc3)O2)CC1
  1.05 | 0.24
O=C(CSc1ccccc1)Nc1ccc(N2CCOCC2)cc1
  1.03 | 0.02
O=C(Nc1ccc(F)cc1)c1ccc2[nH]c(=O)c(=O)[nH]c2c1
  0.92 | 0.94
COc1ccc(CC(=O)N2CCOCC2)cc1OC
  0.04 | -0.09
CCOC(=O)C(=NC(C)CC)NNc1cccc(C(F)(F)F)c1 (stereo not given)
  0.23 | -0.02
CC(=O)c1ccc(N2CCN(S(=O)(=O)c3ccc4c(c3)CC(=O)N4C)CC2)cc1
  0.46 | 0.26
CCOc1ccc(C(=O)Nc2ccc(Cl)cn2)cc1Cl
  0.03 | -0.09
COC(=O)[C@@H]1C[C@@]2(O)[C@H](O)[C@H](O)[C@H](O)C[C@H]2N1CC(c1ccccc1)c1ccccc1
  1.46 | -0.01
Oc1ccccc1-c1cc(-c2ccccc2)no1
  0.44 | -1.1
CC(=O)Nc1ccc(C(=O)OCCC(C)C)cc1
  0.2 | 0.02
COc1cccc(NS(=O)(=O)c2cc3[nH]c(=O)c(=O)[nH]c3cc2C)c1
  0.07 | 0.65
Cc1c(Br)c(C(=O)NNC(=O)c2ccc(C(C)(C)C)cc2)nn1C
  0.16 | 1.38
Cc1cccn2c(=O)c3cc(C(=O)NCCc4ccccc4)sc3nc12
  0.96 | -1.09
CN1COc2ccc3ccccc3c2C1
  0.01 | 0.91
CC(NC(=O)c1ccco1)c1cccc2ccccc12 (stereo not given)
  0.1 | 2.03
CCC(C)N(C(=O)CSc1ncnc2c1cnn2-c1ccccc1)C1CCS(=O)(=O)C1 (stereo not given)
  2.13 | -1.37
CC(=O)Nc1ccc(S(=O)(=O)Nc2cc([N+](=O)[O-])ccc2C)cc1
  0.37 | 1.32
Cc1ccc(S(=O)(=O)CCC(=O)OCC(=O)N(C)C2CCS(=O)(=O)C2)cc1 (stereo not given)
  0.83 | 2.29
O=C(COc1ccccc1[N+](=O)[O-])Nc1ccc(N2CCN(C(=O)c3cccs3)CC2)cc1
  0.56 | 1.5
CCOc1ccc(OCCCC(=O)Nc2nc3ccccc3[nH]2)cc1
  0.97 | -0.21
COc1ccc(F)cc1S(=O)(=O)Nc1cc2c3c(c1)CC(=O)N3CCC2
  0.13 | 2.1
CCSc1cc(C)nc2c(-c3ccc(Cl)cc3)c(C)nn12
  1.33 | -0.53
O=C(CSc1nncs1)N1CCN(S(=O)(=O)c2ccccc2)CC1
  0.2 | 1.9
NC(=O)C1CCN(C(=O)CCSc2ccccc2)CC1
  1.23 | 0.1
O=C(NCCSc1ccccc1)c1ccccc1
  0.97 | 1.36
O=C(OCCNc1nc(-c2ccccc2)nc2ccccc12)c1cccnc1
  0.21 | 3.52
CC(C)n1c(CNC(=O)c2ccccc2)nc2ccccc21
  0.23 | -0.01
CCCCCC1CC(CC(=O)NC(=S)Nc2ccc([N+](=O)[O-])cc2)C(=O)O1 (stereo not given)
  2.52 | 1.4
COc1ccc(Cc2noc(CN3CCCN(C4Cc5ccccc5C4)CC3)n2)cc1OC
  0.5 | 0.31
CCOc1ccc(NC(=O)NNC(=O)COc2ccc3ccccc3c2)cc1
  0.13 | -1.09
COc1ccc(OC)c(NC(=O)CCN2CCN(c3ccccc3)CC2)c1
  0.03 | 1.48
CCOc1cc(/C=C/C(=O)c2ccc(O)cc2)ccc1OCC(=O)N(C)C
  0.79 | 0.54
Cc1c(CCO)c(=O)n(C)n1C(=O)c1ccc(F)cc1
  0.02 | 0.57
O=c1c2cc(-c3ccccc3)sc2ncn1-n1cccc1
  0.01 | 0.22
Cc1cccc(NC(=O)c2ccc(S(=O)(=O)N3CCN(C)CC3)cc2)c1C
  0.63 | -0.22
O=C(Cn1cnc2ccccc21)N1CCc2ccccc21
  0.63 | 1.08
CC1CN(C(=S)NC(=O)c2ccco2)CC(C)O1 (stereo not given)
  0.9 | -0.67
CC(C)(C)NC(=O)CN(C(=O)c1ccc(CN2CCOCC2)o1)c1ccc2c(c1)OCCO2
  0.07 | -1.19
O=C(c1cc(COc2ccc(F)cc2Cl)on1)N1CCc2sccc2C1
  1.39 | -0.1
CCC/C(=N\NC(=O)c1cccc(C)c1)c1ccccc1
  0.58 | -0.4
Cc1ccc(N2C(=O)CC(N3CCSCC3)C2=O)c(C)c1 (stereo not given)
  0.05 | -0.25

Shown field by field: two of the compounds above.
CCOc1cc(/C=C/C(=O)c2ccc(O)cc2)ccc1OCC(=O)N(C)C
  KCNQ2 enhance: 0.79
  KCNQ2 enhance baseline: 0.54

Cc1c(CCO)c(=O)n(C)n1C(=O)c1ccc(F)cc1
  KCNQ2 enhance: 0.02
  KCNQ2 enhance baseline: 0.57

The list is partial; the hit share may differ from the screen's.
